# A1 apoptosis 2: blocks A1, raising caspase activity. caspase activation, % (no concentration beside the values). MEF A1-2A-BIM cells, caspase-Glo luminescence, 3 h; percent of clofoctol response, DMSO zero. AID 2465. 24,000 tested, under 10 active; in the data active = caspase activation above about 5.9%;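 note: wells of about 30 µL received 50 nL stock; the first replicate is given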
#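 Material: mouse embryonic fibroblasts co-expressing A1 and BIM (A1-2A-BIM), primed for A1 dependence / Quantity: 2500 cells/well / Buffer or medium: RPMI-1640 growth medium with 10% FBS / Doses: 50 nL compound per well, pinned / Schedule: 3 h compound exposure at 37 °C / Signal: Caspase-Glo luminescence (DEVD substrate) / Measure: Caspase-3/7 activation, seen as rise in luminescence signal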
# Starred values were filed as active, the others as inactive.
# A first look:
SMILES,A1 apoptosis 2
C[C@H]1CN([C@@H](C)CO)C(=O)c2cccc(NC(=O)Nc3ccc(C(F)(F)F)cc3)c2O[C@@H]1CN(C)CC1CC1,-1.1
C[C@H](CO)N1C[C@H](C)[C@H](CN(C)S(C)(=O)=O)Oc2ccc(NC(=O)Cn3cnnn3)cc2CC1=O,-0.4
COc1ccc(NC(=O)Nc2ccc3c(c2)CC(=O)N([C@@H](C)CO)C[C@@H](C)[C@@H](CN(C)S(=O)(=O)c2ccc(C)cc2)O3)cc1,0.6
COc1ccc(CN(C)C[C@@H]2Oc3ccc(NC(=O)Nc4ccc(F)cc4)cc3C(=O)N([C@@H](C)CO)C[C@@H]2C)cc1,-0.2
C[C@H](CO)N1C[C@H](C)[C@@H](CN(C)CC2CCCCC2)OCCCC[C@H](C)Oc2ccc(NC(=O)Nc3cccc4ccccc34)cc2C1=O,1.3

# All compounds of this part, from the first entry:
SMILES,A1 apoptosis 2
C[C@H]1CN([C@@H](C)CO)C(=O)c2cccc(NC(=O)Nc3ccc(C(F)(F)F)cc3)c2O[C@@H]1CN(C)CC1CC1,-1.1
C[C@H](CO)N1C[C@H](C)[C@H](CN(C)S(C)(=O)=O)Oc2ccc(NC(=O)Cn3cnnn3)cc2CC1=O,-0.4
COc1ccc(NC(=O)Nc2ccc3c(c2)CC(=O)N([C@@H](C)CO)C[C@@H](C)[C@@H](CN(C)S(=O)(=O)c2ccc(C)cc2)O3)cc1,0.6
COc1ccc(CN(C)C[C@@H]2Oc3ccc(NC(=O)Nc4ccc(F)cc4)cc3C(=O)N([C@@H](C)CO)C[C@@H]2C)cc1,-0.2
C[C@H](CO)N1C[C@H](C)[C@@H](CN(C)CC2CCCCC2)OCCCC[C@H](C)Oc2ccc(NC(=O)Nc3cccc4ccccc34)cc2C1=O,1.3
C[C@@H]1CCCCO[C@@H](CN(C)C(=O)Nc2ccc(F)cc2)[C@H](C)CN([C@H](C)CO)C(=O)c2cc(NC(=O)C3CCCCC3)ccc2O1,0.1
CNC[C@H]1Oc2ccc(NS(=O)(=O)c3c(C)noc3C)cc2CC(=O)N([C@H](C)CO)C[C@H]1C,0.9
COc1ccc(NC(=O)Nc2cccc3c2O[C@H](CN(C)C(=O)Nc2ccccc2)[C@@H](C)CN([C@H](C)CO)C3=O)cc1,0.1
C[C@@H]1CCCCO[C@@H](CN(C)C(=O)Nc2ccc3c(c2)OCO3)[C@H](C)CN([C@@H](C)CO)C(=O)c2cc(NC(=O)c3ccncc3)ccc2O1,1.5
C[C@H]1CN([C@@H](C)CO)C(=O)Cc2cc(NS(=O)(=O)c3cccs3)ccc2O[C@@H]1CN(C)Cc1ccc(Oc2ccccc2)cc1,0.6
C[C@H]1CN([C@@H](C)CO)C(=O)Cc2cc(NC(=O)Nc3ccc4c(c3)OCO4)ccc2O[C@@H]1CN(C)S(=O)(=O)c1cn(C)cn1,-1.9
CNC[C@H]1OCCCC[C@@H](C)Oc2ccc(NS(=O)(=O)c3ccc(OC)cc3)cc2C(=O)N([C@H](C)CO)C[C@@H]1C,-1.3
COc1ccc(S(=O)(=O)N(C)C[C@@H]2Oc3ccc(NC(=O)Cn4cnnn4)cc3CC(=O)N([C@H](C)CO)C[C@H]2C)cc1,-0.5
C[C@@H]1CCCCO[C@@H](CN(C)S(=O)(=O)c2ccccc2)[C@@H](C)CN([C@@H](C)CO)C(=O)c2cc(NC(=O)Nc3ccc(F)cc3)ccc2O1,-0.6
C[C@@H]1CN([C@H](C)CO)C(=O)Cc2cc(NC(=O)Nc3ccccc3)ccc2O[C@H]1CN(C)Cc1ccc(C(=O)O)cc1,-0.6
C[C@@H]1CCCCO[C@@H](CN(C)S(C)(=O)=O)[C@@H](C)CN([C@@H](C)CO)C(=O)c2cc(NS(=O)(=O)c3ccc(Cl)cc3)ccc2O1,-1.0
C[C@@H]1CCCCO[C@@H](CN(C)C(=O)c2ccccc2)[C@@H](C)CN([C@@H](C)CO)C(=O)c2cc(NC(=O)NC3CCCCC3)ccc2O1,0.0
C[C@H]1CN([C@@H](C)CO)C(=O)Cc2cc(NC(=O)Nc3ccccc3)ccc2O[C@H]1CN(C)S(=O)(=O)c1cn(C)cn1,-1.1
C[C@H]1CCCCO[C@@H](CN(C)S(=O)(=O)c2ccc(F)cc2)[C@@H](C)CN([C@@H](C)CO)C(=O)c2cc(NC(=O)Nc3ccc(F)cc3)ccc2O1,-1.1
COc1ccc(S(=O)(=O)N(C)C[C@H]2Oc3ccc(NC(=O)Nc4ccc5c(c4)OCO5)cc3C(=O)N([C@H](C)CO)C[C@H]2C)cc1,0.4
C[C@H](CO)N1C[C@H](C)[C@@H](CN(C)S(=O)(=O)c2cn(C)cn2)Oc2ccc(NS(=O)(=O)c3ccc(F)cc3)cc2CC1=O,0.9
C[C@@H]1CN([C@@H](C)CO)C(=O)Cc2cc(NC(=O)NC3CCCCC3)ccc2O[C@@H]1CN(C)Cc1ccc(-c2ccccc2)cc1,0.4
C[C@@H]1CN([C@H](C)CO)C(=O)c2cc(NC(=O)Nc3ccccc3)ccc2O[C@@H](C)CCCCO[C@@H]1CN(C)C(=O)CCC(F)(F)F,0.5
C[C@H](CO)N1C[C@H](C)[C@H](CN(C)Cc2ccc3c(c2)OCO3)OCCCC[C@H](C)Oc2ccc(NC(=O)CCCN(C)C)cc2C1=O,0.5
COc1ccc(S(=O)(=O)Nc2ccc3c(c2)CC(=O)N([C@@H](C)CO)C[C@H](C)[C@H](CN(C)C(=O)NC2CCCCC2)O3)cc1,0.5
C[C@H](CO)N1C[C@H](C)[C@@H](CN(C)S(=O)(=O)c2cccs2)Oc2ccc(NC(=O)Nc3ccccc3)cc2C1=O,0.2
COc1ccc(S(=O)(=O)Nc2cccc3c2O[C@H](CN(C)CC2CCCCC2)[C@@H](C)CN([C@@H](C)CO)C3=O)cc1,0.1
C[C@H](CO)N1C[C@H](C)[C@H](CN(C)S(=O)(=O)c2cccs2)Oc2c(NC(=O)C3CCOCC3)cccc2C1=O,0.5
CC(C)NC(=O)Nc1ccc2c(c1)C(=O)N([C@H](C)CO)C[C@H](C)[C@H](CN(C)C(=O)Nc1ccc(F)cc1)OCCCC[C@H](C)O2,-0.2
COc1ccc(NC(=O)N(C)C[C@H]2OCCCC[C@@H](C)Oc3ccc(NS(=O)(=O)c4ccc(F)cc4)cc3C(=O)N([C@@H](C)CO)C[C@H]2C)cc1,-1.3
Cc1noc(C)c1S(=O)(=O)N(C)C[C@@H]1Oc2c(NC(=O)c3nc4ccccc4s3)cccc2C(=O)N([C@@H](C)CO)C[C@@H]1C,-0.4
C[C@@H]1CCCCO[C@@H](CN(C)C(=O)c2ccncc2)[C@H](C)CN([C@H](C)CO)C(=O)c2cc(NS(=O)(=O)c3ccccc3)ccc2O1,-0.1
COc1ccc(NC(=O)Nc2ccc3c(c2)CC(=O)N([C@@H](C)CO)C[C@H](C)[C@H](CN(C)C(=O)Nc2c(C)noc2C)O3)cc1,-1.1
COc1ccc(CN(C)C[C@@H]2Oc3c(NC(=O)C4CCOCC4)cccc3C(=O)N([C@H](C)CO)C[C@H]2C)cc1,0.0
C[C@@H]1CCCCO[C@@H](CN(C)Cc2ccccc2)[C@H](C)CN([C@H](C)CO)C(=O)c2cc(NC(=O)Nc3ccc4c(c3)OCO4)ccc2O1,-0.3
C[C@H]1CN([C@@H](C)CO)C(=O)c2cc(NS(=O)(=O)c3cccs3)ccc2O[C@@H]1CN(C)S(=O)(=O)c1cn(C)cn1,1.8
CNC[C@H]1Oc2ccc(NC(=O)NC3CCCCC3)cc2CC(=O)N([C@H](C)CO)C[C@@H]1C,-0.1
C[C@@H]1CCCCO[C@@H](CN(C)S(=O)(=O)c2ccc(F)cc2)[C@H](C)CN([C@H](C)CO)C(=O)c2cc(NC(=O)Nc3cccc4ccccc34)ccc2O1,-0.4
CCO[C@H]1OC(C(=O)NC2CC2)=C[C@@H](c2ccccc2)[C@@H]1CCCO,0.6
C[C@@H]1CN([C@@H](C)CO)C(=O)c2cc(NS(=O)(=O)c3cccs3)ccc2O[C@@H]1CN(C)Cc1ccc(C(F)(F)F)cc1,-1.5
Cc1noc(C)c1S(=O)(=O)Nc1ccc2c(c1)C(=O)N([C@@H](C)CO)C[C@H](C)[C@@H](CN(C)S(=O)(=O)c1ccccc1)OCCCC[C@H](C)O2,1.0
COc1ccc(S(=O)(=O)Nc2ccc3c(c2)CC(=O)N([C@H](C)CO)C[C@H](C)[C@H](CN(C)C(=O)NC2CCCCC2)O3)cc1,0.3
COc1ccc(S(=O)(=O)N(C)C[C@H]2Oc3ccc(NS(=O)(=O)c4cn(C)cn4)cc3CC(=O)N([C@H](C)CO)C[C@@H]2C)cc1,0.3
O=C(O)CCCCCCC(=O)N/N=C/c1cccc(Br)c1,1.4
C[C@H](CO)N1C[C@H](C)[C@H](CN(C)S(=O)(=O)c2ccc(F)cc2)Oc2ncc(/C=C/c3ccccc3)cc2C1=O,-1.7
Cc1noc(C)c1S(=O)(=O)Nc1ccc2c(c1)CC(=O)N([C@H](C)CO)C[C@H](C)[C@H](CN(C)Cc1ccc(C(=O)O)cc1)O2,-0.8
O=C(CCCCC(=O)N/N=C/c1c(F)c(F)c(F)c(F)c1F)NO,0.2
C[C@@H]1CN([C@@H](C)CO)C(=O)c2cccc(NC(=O)Nc3ccc(C(F)(F)F)cc3)c2O[C@H]1CN(C)C,-0.3
Cc1noc(C)c1NC(=O)Nc1cccc2c1O[C@@H](CN(C)S(=O)(=O)c1ccc(F)cc1)[C@@H](C)CN([C@H](C)CO)C2=O,0.2
C[C@H](CO)N1C[C@H](C)[C@H](CN(C)C)Oc2ccc(NC(=O)NC3CCCCC3)cc2CC1=O,0.4
Cc1noc(C)c1NC(=O)Nc1ccc2c(c1)C(=O)N([C@@H](C)CO)C[C@@H](C)[C@H](CN(C)C(=O)NC(C)C)OCCCC[C@H](C)O2,2.1
Cc1noc(C)c1NC(=O)Nc1cccc2c1O[C@H](CN(C)Cc1ccncc1)[C@@H](C)CN([C@H](C)CO)C2=O,-0.2
C[C@H]1CN([C@@H](C)CO)C(=O)Cc2cc(NC(=O)Cn3cnnn3)ccc2O[C@H]1CN(C)S(=O)(=O)c1ccccc1,-0.3
C[C@H](CO)N1C[C@H](C)[C@@H](CN(C)C(=O)Nc2ccc3c(c2)OCO3)OCCCC[C@H](C)Oc2ccc(NS(C)(=O)=O)cc2C1=O,0.3
COc1ccc(/C=C/c2cc(O)cc(O[C@@H]3O[C@H](CO)[C@@H](O)[C@H](O)[C@H]3O)c2)cc1,-6.8
C[C@@H]1CN([C@H](C)CO)C(=O)c2cccc(NS(=O)(=O)c3ccc(Cl)cc3)c2O[C@@H]1CN(C)CC1CCCCC1,1.4
CNC[C@@H]1Oc2ncc(-c3cccc(C(F)(F)F)c3)cc2C(=O)N([C@H](C)CO)C[C@@H]1C,-0.6
CC(C)NC(=O)N(C)C[C@H]1Oc2c(NS(=O)(=O)c3ccc(F)cc3)cccc2C(=O)N([C@H](C)CO)C[C@@H]1C,-0.3
C[C@H](CO)N1C[C@H](C)[C@H](CN(C)C(=O)Nc2ccc(F)cc2)Oc2c(NC(=O)C3CCCCC3)cccc2C1=O,-0.5
COc1ccc(CN(C)C[C@@H]2OCCCC[C@H](C)Oc3ccc(NS(=O)(=O)c4ccccc4)cc3C(=O)N([C@H](C)CO)C[C@H]2C)cc1,-0.5

# Some of the entries above in another layout:
COc1ccc(CN(C)C[C@@H]2OCCCC[C@H](C)Oc3ccc(NS(=O)(=O)c4ccccc4)cc3C(=O)N([C@H](C)CO)C[C@H]2C)cc1
  A1 apoptosis 2: -0.5
C[C@H]1CN([C@@H](C)CO)C(=O)Cc2cc(NC(=O)Cn3cnnn3)ccc2O[C@H]1CN(C)S(=O)(=O)c1ccccc1
  A1 apoptosis 2: -0.3

# (list continues)
SMILES,A1 apoptosis 2
C[C@@H]1CCCCO[C@@H](CN(C)Cc2ccccc2)[C@H](C)CN([C@@H](C)CO)C(=O)c2cc(NC(=O)c3ccccc3)ccc2O1,-0.9
C[C@@H]1CN([C@@H](C)CO)C(=O)c2cccc(NS(=O)(=O)c3ccccc3)c2O[C@H]1CN(C)S(=O)(=O)c1ccc(F)cc1,-0.5
C[C@@H]1CCCCO[C@H](CN(C)Cc2ccccc2)[C@H](C)CN([C@H](C)CO)C(=O)c2cc(NS(=O)(=O)c3ccccc3)ccc2O1,0.3
CN(C)CCCN1C(=O)[C@@]2(Cc3ccccc31)c1ccccc1C(=O)N(C1CCCCC1)[C@H]2c1ccc(CO)cc1,0.9
C[C@@H]1CN([C@H](C)CO)C(=O)c2cc(NC(=O)Nc3ccccc3)ccc2O[C@@H](C)CCCCO[C@@H]1CN(C)C(=O)C1CCCCC1,-0.3
C[C@H]1CN([C@@H](C)CO)C(=O)Cc2cc(NC(=O)C3CCCCC3)ccc2O[C@@H]1CN(C)Cc1ccc(C(=O)Nc2ccccc2N)cc1,0.8
Cc1noc(C)c1S(=O)(=O)Nc1ccc2c(c1)CC(=O)N([C@@H](C)CO)C[C@@H](C)[C@H](CN(C)C(=O)NC(C)C)O2,-0.6
C[C@@H]1CN([C@H](C)CO)C(=O)c2cc(NC(=O)Nc3ccc4c(c3)OCO4)ccc2O[C@@H]1CN(C)S(=O)(=O)c1cccs1,0.1
Cc1noc(C)c1S(=O)(=O)Nc1ccc2c(c1)C(=O)N([C@H](C)CO)C[C@@H](C)[C@@H](CN(C)CC1CCCCC1)OCCCC[C@H](C)O2,-1.3
C[C@H]1CN([C@@H](C)CO)C(=O)c2cccc(NC(=O)C3CCCCC3)c2O[C@H]1CN(C)C(=O)Nc1ccc2c(c1)OCO2,0.2

# Copied from the list:
# A1 apoptosis 2 with C[C@@H]1CCCCO[C@@H](CN(C)Cc2ccccc2)[C@H](C)CN([C@@H](C)CO)C(=O)c2cc(NC(=O)c3ccccc3)ccc2O1 stands at -0.9
# A1 apoptosis 2 with Cc1noc(C)c1S(=O)(=O)Nc1ccc2c(c1)C(=O)N([C@H](C)CO)C[C@@H](C)[C@@H](CN(C)CC1CCCCC1)OCCCC[C@H](C)O2 stands at -1.3
# A1 apoptosis 2 with C[C@H]1CN([C@@H](C)CO)C(=O)Cc2cc(NC(=O)C3CCCCC3)ccc2O[C@@H]1CN(C)Cc1ccc(C(=O)Nc2ccccc2N)cc1 stands at 0.8

# Screens: PubChem, Broad Institute

# Some of the compounds tested; rates above refer to the full screens.
